Cruzain Triton = blocks cruzain activity in presence of Triton detergent; 0.43% of 200,000 active; P25779; AID 1478; purified cruzain, Z-FR-AMC fluorescence, 0.01% Triton; Potency, µM, for inactives: max response, negative = inhibition, most hits filed as inhibitors;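 also: plate controls were neutral wells for no effect and buffer without enzyme for full effect; nearly all actives have a fitted effect of over 40% in size; top concentration of the series not given in the record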
Target sequence (P25779 123-467 limits assumed): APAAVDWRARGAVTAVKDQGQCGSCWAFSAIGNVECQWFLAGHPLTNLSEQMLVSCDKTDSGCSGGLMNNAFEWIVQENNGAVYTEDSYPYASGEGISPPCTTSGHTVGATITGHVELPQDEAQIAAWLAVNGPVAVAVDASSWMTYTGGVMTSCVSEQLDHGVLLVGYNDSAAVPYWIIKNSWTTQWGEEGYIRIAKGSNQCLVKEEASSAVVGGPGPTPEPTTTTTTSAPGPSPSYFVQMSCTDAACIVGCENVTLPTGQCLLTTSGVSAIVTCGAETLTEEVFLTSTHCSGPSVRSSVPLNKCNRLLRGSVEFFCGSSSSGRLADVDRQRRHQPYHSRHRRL
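Detergent-containing run (0.01% Triton X-100) in acetate buffer pH 5.5 with 5 mM DTT: enzyme at 1.5 nM final, 15 min compound preincubation at room temperature, then 2 uM Z-FR-AMC substrate. Activity taken as 60 s fluorescence increase at 360/450 nm.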
RE007 growth inh = less growth of the S. pombe RE007 Vpr strain | S. pombe RE007 Vpr strain, BacTiter-Glo ATP luminescence, 24 h; control for the full effect not named in the record | Potency, µM (series often up to 92.2 µM), without a hit: top-dose activity change, negative = less growth | 0.21% of 360,000 active | AID 651644; active = well fitted falling curve with a large enough effect; inconclusive = small, poorly fitted or top-dose-only effect; inactive = no such curve, though single readings can be large or run the other way;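 also: % is scaled to controls: 0 for no effect and ±100 for the full control effect; nearly all actives have a fitted effect of over 50% in size; the assay follows cell death caused by Vpr and the record does not say whether a fall means rescue or toxicity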
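Fission yeast RE007 carrying one integrated HIV-1 vpr copy, seeded at OD 0.01 in PMG+AL medium with 23 nL pinned compound. Grown 24 h at 30 degrees; viability read by BacTiter-Glo luminescence after 5 min.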
Cruzain inh noDet = inhibitors of Trypanosoma cruzi cruzain without detergent; P25779; purified cruzain, Z-FR-AMC fluorescence, no detergent; Potency, µM, without a hit: max response, negative = inhibition, hits mostly inhibitors; 2.3% of 200,000 active;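 also: plate controls were enzyme without inhibitor for no effect and buffer without enzyme for full effect; nearly all actives have a fitted effect of over 40% in size; top concentration of the series not given in the record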
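Detergent-free condition (0.00005% Triton X-100) in acetate buffer pH 5.5 with DTT. 1.5 nM enzyme and compound were pre-mixed 15 min, then 2 uM Z-FR-AMC substrate added; reaction progress from fluorescence change between first and third reads (60 s).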
SARS PLpro yeast = blocks SARS-CoV papain-like protease in a yeast assay. Potency, µM (titrated, usually from 32.9 µM), for the others: top-dose activity, positive = growth rescue. S. cerevisiae expressing SARS-CoV PLpro, growth rescue; control for the full effect not named in the record. 0.19% of 330,000 active; active means well fitted rising curve with a large enough effect; inconclusive means small, poorly fitted or top-dose-only effect; inactive means no such curve, though single readings can be large or run the other way; also: 0% is about no effect; nearly all actives have a fitted effect of over 55% in size; growth read by luminescence after 48 h
StopGo reporter = lowers the luciferase signal of an FMDV 2A StopGo reporter; Potency, µM (highest dose often 57.9 µM), without a hit: at the highest dose signal change, negative = less light; 1.2% of 410,000 active; human cells with a luciferase reporter of 2A StopGo recoding; control for the full effect not named in the record; AID 1159524; active = well fitted falling curve with a large enough effect; inconclusive = small, poorly fitted or top-dose-only effect; inactive = no such curve, though single readings can be large or run the other way; tested in HEK293T cells; also: % is scaled to controls: 0 for no effect and ±100 for the full control effect; nearly all actives have a fitted effect of over 45% in size; luciferase light after 4 h
NS1 inh = inhibitors of influenza NS1 protein function | S. cerevisiae slowed by influenza A NS1, growth recovery by OD600 | 0.4% of 270,000 active | Potency, µM (doses to about 46.1 µM), for inactives: at the highest dose activity, positive = more growth | AID 2326; active means well fitted rising curve with a large enough effect; inconclusive means small, poorly fitted or top-dose-only effect; inactive means no such curve, though single readings can be large or run the other way; also: nearly all actives have a fitted effect of over 50% in size
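OD600 was taken as the measure of yeast growth restored by compound in an NS1-expressing S. cerevisiae strain. Cells had been washed out of glucose medium and diluted 1:100 into galactose -URA medium, pH 6.0.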
Marburg entry inh = inhibitors of Marburg virus binding or cell entry; Marburg virus pseudotyped entry inhibition, cell reporter; control for the full effect not named in the record; about a third of the inactives were read at about 46 µM; Potency, µM (top dose mostly 37.8 µM), inactives show at the highest dose activity change, negative = inhibition, actives largely listed as inhibitors; 1.8% of 300,000 active; active = well fitted inhibition curve with a large enough effect; inconclusive = small, poorly fitted or top-dose-only effect, or effect the other way; inactive = flat fitted curve, though single readings scatter; tested in HEK293 cells; about a fifth of its hits are not listed in these tables; also: % is scaled to controls: 0 for no effect and ±100 for the full control effect; luciferase read-out
Lassa entry inh = blocks Lassa virus binding to or entry into cells. Potency, µM (titrated, usually from 37.9 µM), without a hit: at the top dose activity change, negative = inhibition, usual class: inhibitors. 1.2% of 300,000 active. Lassa virus pseudotype entry inhibition, cell reporter; control for the full effect not named in the record. AID 540256; active means well fitted inhibition curve with a large enough effect; inconclusive means small, poorly fitted or top-dose-only effect, or effect the other way; inactive means flat fitted curve, though single readings scatter; tested in HEK293 cells; also: % is scaled to controls: 0 for no effect and ±100 for the full control effect; nearly all actives have a fitted effect of over 50% in size; luciferase read-out
* marks the source's active call; other numbers are inactive results; ? = inconclusive; . = no result given; & = joins results of further samples; [ ] = remark or other dose. Unless noted, calls follow the shape of the dose curve; as a rule, active = well fitted curve in the direction sought with a large enough effect; inconclusive = small, poorly fitted or top-dose-only effect, or another doubt; inactive = no such curve, though single readings can be large; an effect the other way counts as inactive or inconclusive. Potency is read from the fitted curve at half-maximal effect. Compounds as they come. About 4.6% of those tested had a hit in this group.

SMILES	Cruzain Triton	RE007 growth inh	Cruzain inh noDet	SARS PLpro yeast	StopGo reporter	NS1 inh	Marburg entry inh	Lassa entry inh
Cc1ccc(NC(=O)C2CCCN(S(=O)(=O)c3cccc4cccnc34)C2)c(Br)c1 (stereo not given)	0.4%	.	1%	.	-25%	.	.	-20%[46.1 µM]
O=C(CC(c1ccccc1)c1ccccc1)NCc1cccnc1	0.2%	7%	-4%	7%	?	2%	13%	-5%
CCc1ccc2[nH]c(=O)c(CN(Cc3ccccc3)Cc3nnnn3Cc3ccco3)cc2c1	-12%	1%	6%	1%	?	-45%	?	?
O=C(NCc1ccccc1)c1ccccc1CO	-0.5%	12%	-4%	-14%	-6%	?	22%	15%
C/C(=N\Nc1cc(N2CCOCC2)ncn1)c1cccc([N+](=O)[O-])c1	.	-1%	.	0%	62%[activator]	1%	.	.
COc1ccc(C(=O)Nc2cccc(C)c2)cc1	7.8%	-2%[3.69 µM]	-6%	-2%	0%	-23%	9%	-1%
O=C1CCCCC1Nc1ccc2ccccc2c1 (stereo not given)	.	?	.	.	26%	.	3.5µM*	?
CCC1(C(=O)NC(=Nc2ccccc2)Nc2ccccc2)CCOC1=O (stereo not given)	.	-4%	.	.	1%	.	1%	1%
CCCOc1ccc(C(=O)Nc2ccc(S(=O)(=O)Nc3onc(C)c3C)cc2)cc1	.	7%	.	-1%	12%	.	0%	12%
COc1cc(C(c2c(C)[nH][nH]c2=O)c2c(C)[nH][nH]c2=O)ccc1OC(=O)c1ccccc1OC	0.3%	.	5%	.	1%	.	7%[46.1 µM]	5%[46.1 µM]
NC(=O)[C@@H]1CCOc2c(I)cc([N+](=O)[O-])cc2C(=O)N[C@@H](CO)C(=O)NCC(=O)N1	-0.8%	0%	?	8%	-12%	16%	?	11%
CCOC(=O)c1sc(NNC(=O)c2ccc(F)cc2)nc1C	.	-15%	.	0%	50%[activator]	-39%	?	?
CCOc1cc(-c2nc(-c3ccc(C)nc3OC)no2)cc(OCC)c1OCC	0.7%	9%	6%	-3%	-24%	3%	-16%	-2%
Oc1oc(-c2ccco2)nc1C=Nc1ccccc1	-21%	7%	-9%	-6%	.	-63%	7%	4%
CCc1ccc2[nH]c(=O)c(CN(CCN(CC)CC)C(=S)NCc3ccco3)cc2c1	.	3%	.	-1%	-7%	2%	.	.
COCCN(CCOC)S(=O)(=O)c1ccc(C(=O)Nc2nnc(CSC)o2)cc1	.	19%	.	0%	-19%	.	0%	-2%
COc1cc(C(=O)N2CCN(CC(O)COc3ccccc3)CC2)cc(OC)c1OC (stereo not given)	.	-10%	.	.	12%	.	10%	2%
Cc1cc(NC(=O)Nc2ccc(OCc3ccccc3)cc2)n(C)n1	.	-17%	.	0%	-2%	15%	0%	?
CC1CCC(C(=O)NC(C(=O)OCC(=O)c2ccc(Br)cc2)C(C)C)CC1 (stereo not given)	14µM*	.	-23%	.	0%	.	-16%[46.1 µM]	-12%[46.1 µM]
Cc1oc(C(=O)O)cc1COc1ccc2c3c(c(=O)oc2c1C)CCC3	-9.2%	2%[3.69 µM]	-5%	3%	11%	-3%	-7%	18%
CCCCN(CC)Cc1ccc(CNC(=S)Nc2ccc(C)cc2Cl)o1	.	2%	.	-4%	0%	.	?	-21%
O=C(CN1C(=O)CCSc2ccc(S(=O)(=O)N3CCCC3)cc21)Nc1ccccc1Cl	-4.1%	-12%	5%	-4%	-9%&-22%	5%	.	-5%[46.1 µM]
C/C(=N/NC(=O)NC12CC3CC(CC(C3)C1)C2)c1ccccc1	.	-17%	.	3%	7%	0%	.	.
O=c1[nH]c(CN2CCN(S(=O)(=O)c3cccs3)CC2)nc2c(Br)cc(Br)cc12	.	-1%	.	0%	?	.	-17%[46.1 µM]	-28%
O=C(Nc1ccc(F)cc1)c1sccc1SCc1cccc(C(F)(F)F)c1	-5.2%	-5%	-26%	-8%	?	-17%	-21%	5%

Next section
SMILES	Cruzain Triton	RE007 growth inh	Cruzain inh noDet	SARS PLpro yeast	StopGo reporter	NS1 inh	Marburg entry inh	Lassa entry inh
Cc1ccc(CNCCCSc2ncccn2)cc1	.	1%	.	?	-2%	9%	15%[46.1 µM]	-2%[46.1 µM]
COc1ccc(S(=O)(=O)N2CCCC(C(=O)O)C2)cc1Cl (stereo not given)	6.6%	-2%	0%	.	-20%	2%	?	-1%
CCOc1ccc(C(=O)NC(C(=O)NCc2cccnc2)C(C)C)cc1 (stereo not given)	.	-9%	.	1%	-9%	-4%	?	-10%[46.1 µM]
CCCC(C)C(=O)NCc1ccncc1 (stereo not given)	.	1%	.	0%	6%	-3%	3%	7%[46.1 µM]
Cc1nc(NCC(c2ccccc2)N(C)C)c2c(C)c(C)sc2n1 (stereo not given)	.	-15%	.	14%	?	11%	?	1%
CC(C)(C)C(=O)Cn1ncc(N2CCOCC2)c(Br)c1=O	.	-5%	.	0%	14%	3%	23%[46.1 µM]	-16%[46.1 µM]
COc1ccc(-n2cnc3cc(C(=O)NCCN4CCOCC4)ccc32)cc1	.	10%	.	0%	-12%	.	-7%[46.1 µM]	0%[46.1 µM]
CCCOc1cccc(/C=N/NC(=O)c2csc(C)c2C)c1	-0.8%	14%	-9%	2%	9%	1%	-5%[46.1 µM]	-7%
CC(=O)C1=C(O)C(=O)N(c2ccc(O)cc2)C1c1ccccc1F (stereo not given)	.	-3%	.	1%	-16%	-3%	.	.
Cc1ccc(-c2nc(-c3cc4cccc(OCc5cccc(F)c5)c4oc3=O)no2)cc1	-7.3%	.	-3%	.	-1%	.	18%[46.1 µM]	?
CS(=O)(=O)Nc1ccccc1C(=O)NCc1ccco1	-25%	-3%	-24%	-4%	-1%	20%	-2%	8%
COC(=O)c1ccc(C(=O)OC)c(NC(=O)COC(=O)CC2CC3CCC2C3)c1 (stereo not given)	-11%	-7%	9%	-7%	-24%	4%	-17%	4%
OC1c2cc(Cl)ccc2-c2c(Cl)cc(Cl)cc21 (stereo not given)	.	-23%	.	.	-7%	.	-10%[46.1 µM]	13%[46.1 µM]
Cc1cccc(COc2ccccc2C(=O)NC2CCC(O)CC2)c1 (stereo not given)	.	8%	.	?	?	.	11%	-25%
CCOc1ccc2cc(S(=O)(=O)n3ccnc3C)ccc2c1	-0.7%	-6%	3%	0%	12%	-2%	-1%	0%
COc1cccc(CN2C(=O)C(C)Oc3ccccc32)c1 (stereo not given)	.	-6%	.	1%	-9%	-2%	-11%[46.1 µM]	0%[46.1 µM]
COc1ccc(OC)c(NC(=O)C2C3C=CC(C3)C2C(=O)NCc2ccccn2)c1 (stereo not given)	7.2%	-4%	13%	3%	4%	-2%	-8%	-12%
COc1ccc(C(=O)Nc2ccc(-n3nncc3-c3ccc(OC)c(OC)c3)cc2)cc1	0.4%	.	9%	.	-19%	.	.	?
O=C(COc1ccccc1Cl)Nc1ccc(NC(=O)c2ccco2)cc1	.	6%	.	10%	-6%	-18%	12%[46.1 µM]	-6%
Cn1c(CN2CCOCC2)nnc1SCC(=O)NCCc1ccccc1	-0.5%	8%	2%	-4%	1%	2%	23%	-2%
COc1ccc(-n2c(-c3ccc(Br)cc3)n[nH]c2=S)cc1	.	3%	.	-2%	-13%	?	.	.
Cc1nn(-c2cc(N3CCCCC3)ccc2[N+](=O)[O-])c(=O)c2ccccc12	-18%	0%	3%	7%	6%	-1%	-11%	-30%
CCOc1ccc(C(c2c(O)cc(C)n(CCOC)c2=O)N2CCC(C)CC2)cc1 (stereo not given)	1.0%	.	?	.	-14%	.	.	-29%[46.1 µM]
Cc1cccc(/C=N/n2c(-c3ccncc3)n[nH]c2=S)c1	1.5%	15%	3%	-9%	-23%	7%	?	-2%
CCn1cc(C(=O)N[C@H](C(=O)NCCCn2ccnc2)C(C)C)c(=O)c2cc3c(cc21)OCO3	.	-2%	.	1%	38%[activator]	-12%	30%[46.1 µM]	0%[46.1 µM]

Another view of some results above:
Fields: Cruzain Triton, RE007 growth inh, Cruzain inh noDet, SARS PLpro yeast, StopGo reporter, NS1 inh, Marburg entry inh, Lassa entry inh
Cc1ccc(CNCCCSc2ncccn2)cc1
  ., 1%, ., ?, -2%, 9%, 15%[46.1 µM], -2%[46.1 µM]
CCn1cc(C(=O)N[C@H](C(=O)NCCCn2ccnc2)C(C)C)c(=O)c2cc3c(cc21)OCO3
  ., -2%, ., 1%, 38%[activator], -12%, 30%[46.1 µM], 0%[46.1 µM]
Cc1cccc(/C=N/n2c(-c3ccncc3)n[nH]c2=S)c1
  1.5%, 15%, 3%, -9%, -23%, 7%, ?, -2%

(cont.)
SMILES	Cruzain Triton	RE007 growth inh	Cruzain inh noDet	SARS PLpro yeast	StopGo reporter	NS1 inh	Marburg entry inh	Lassa entry inh
CC(C)(C)NC(=O)NC(=O)COC(=O)COc1ccc2c(c1)CCC2	-10%	-5%	19%	-2%	-11%	-59%	-1%	12%
COc1cc(CC(=O)OCC(=O)Nc2sccc2C(N)=O)cc(OC)c1OC	.	-13%	.	1%	?	.	11µM*	?
CC(=O)/C(=N/Nc1cccc(C)c1)N1CCOCC1	-12%	340%	8%	-3%	-7%	-1%	?	-15%
O=C(NCc1ccco1)c1ccc(S(=O)(=O)N2CCOCC2)cc1	-5.9%	3%	-9%	1%	-1%	10%	?	18%
Cc1nn(CCOc2cccc(Cl)c2)c(C)c1[N+](=O)[O-]	.	0%	.	-8%	0%	-34%	-22%[46.1 µM]	6%[46.1 µM]
CC(=O)Nc1cccc(NC(=O)C2CC(=O)N(c3ccc(C)cc3)C2)c1 (stereo not given)	-5.8%	3%	-13%	0%	.	-15%	24%	26%
CC(C)c1nn2c(=O)cc(COC(=O)c3ccc(NC(=O)c4ccccc4Cl)cc3)nc2s1	-3.0%	.	-4%	.	?	.	.	?
Cc1nc(NC(=O)c2cccc(Cl)c2)sc1C(=O)N1CCCCC1	.	-16%	.	1%	28%	4%	.	.
O=C(Nc1ccc2cn[nH]c2c1)c1c(Cl)cccc1Cl	-3.6%	3%	-3%	4%	-9%	-2%	10%	15%
CC(CCc1ccccn1)(CCc1ccccn1)C(=O)c1ccccc1	.	0%	.	.	?	.	?	?
